CtBP-E1A inh – CtBP/E1A binding inhibition. AlphaScreen GST-E1A/His-CtBP binding, 1536-well; active compounds read low; control for the full effect not named in the record. 340,000 compounds, 0.49% hits. activity change, % (concentration not given with the values). AID 651724; in the data active means activity change below about -65%; inconclusive means about -30% to -65%; inactive means above about -30%; also: % is scaled to controls: 0 for no effect and ±100 for the full control effect
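Steps: dispense buffer (Tris pH 8.0, NaCl 300 mM, TCEP 1 mM, BSA, Tween 20); add 5X protein mix (GST-E1A, His-CtBP, 125 nM each); pin 23 nL compound; 2 h at 37 °C, dark; add 5X beads (50 ug/mL); 1 h; read.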
PINK1 expr mod – modulators of PINK1 expression; PINK1 immunofluorescence, high-content cytometry, 24 h; Potency, µM (highest dose often 76.6 µM), for the others: at the highest dose activation (PINK1 increase), usual class: activators; 410,000 compounds, 0.2% hits; AID 624263; active = well fitted activation curve with a large enough effect; inconclusive = small, poorly fitted or top-dose-only effect; inactive = flat fitted curve, though single readings scatter; cell line not stated here;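 also: potency is read from the fitted curve at half-maximal effect; % of control where 0% means no effect; nearly all actives have a fitted effect of over 65% in size; a mitochondrial uncoupler was the plate control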
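Readout is PINK1 immunofluorescence, quantified alongside mitochondrial, cell and nuclear markers by laser-scanning microplate cytometry. Cells from a stable line were exposed to compound titrations (5 concentrations) for 24 hours, with CCCP controls.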
D2 agonist – agonists of human D2 dopamine receptor (beta-arrestin); P14416; DiscoveRx PathHunter D2 beta-arrestin, luminescence, 90 min; 100% = 57 uM dopamine signal; activation, % (no concentration beside the values); 360,000 compounds, 0.084% hits; AID 624465; in the data active = activation above about 40%; inconclusive = about 15% to 40%; inactive = below about 15%; also: compound concentration not given in the record; the text of the record calls up to 30% inactive
Target sequence (P14416 whole entry, looked up): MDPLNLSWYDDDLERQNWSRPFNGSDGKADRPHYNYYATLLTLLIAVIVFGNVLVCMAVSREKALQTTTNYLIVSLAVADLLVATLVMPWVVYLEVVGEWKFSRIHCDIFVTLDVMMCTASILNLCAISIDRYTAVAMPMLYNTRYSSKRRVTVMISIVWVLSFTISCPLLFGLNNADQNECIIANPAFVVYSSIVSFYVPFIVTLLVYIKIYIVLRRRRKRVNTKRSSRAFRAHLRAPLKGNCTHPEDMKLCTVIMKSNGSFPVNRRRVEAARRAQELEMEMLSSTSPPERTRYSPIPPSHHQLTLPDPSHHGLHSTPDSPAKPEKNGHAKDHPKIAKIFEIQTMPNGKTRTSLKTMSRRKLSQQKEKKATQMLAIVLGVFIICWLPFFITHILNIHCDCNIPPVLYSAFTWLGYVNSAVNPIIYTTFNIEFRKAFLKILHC
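Agonist mode: compounds alone added to overnight-plated D2 PathHunter cells for 90 min at 37 C, with 57 uM final dopamine (EC100) defining full response. Beta-arrestin recruitment detected by chemiluminescent reagent, read after 1 h at ambient temperature.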
Six1-Eya2 blk – inhibitors of human Six1/Eya2 interaction; Q15475+O00167; AlphaScreen GST-Six1/His-Eya2 binding, biochemical; active compounds read low; control for the full effect not named in the record; activity change, % (test concentration not listed); AID 651725; 360,000 compounds, 0.56% hits; in the data active = activity change below about -65%; inconclusive = about -30% to -65%; inactive = above about -30%; also: % is scaled to controls: 0 for no effect and ±100 for the full control effect
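GST-Six1 + His-Eya2 (5X stock: 250/500 nM); Tris pH 8.0, 300 mM NaCl, 0.05% BSA, 0.02% Tween 20; GSH donor/Ni acceptor beads; 1 h 37 °C dark; AlphaScreen readout.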
TRPML1 agonist – activates the human TRPML1 channel; Q9GZU1; TRPML1-expressing cells, Ca2+ dye fluorescence, FDSS; host cell line not named in the record; reference of the full effect not given here; activation, % (no concentration beside the values); 410,000 compounds, 0.12% hits; in the data active = activation above about 50%; inconclusive = about 30% to 50%; inactive = below about 30%; also: 0% is about no effect; the text of the record puts the active cut at 80%
Target sequence (Q9GZU1 whole entry, looked up): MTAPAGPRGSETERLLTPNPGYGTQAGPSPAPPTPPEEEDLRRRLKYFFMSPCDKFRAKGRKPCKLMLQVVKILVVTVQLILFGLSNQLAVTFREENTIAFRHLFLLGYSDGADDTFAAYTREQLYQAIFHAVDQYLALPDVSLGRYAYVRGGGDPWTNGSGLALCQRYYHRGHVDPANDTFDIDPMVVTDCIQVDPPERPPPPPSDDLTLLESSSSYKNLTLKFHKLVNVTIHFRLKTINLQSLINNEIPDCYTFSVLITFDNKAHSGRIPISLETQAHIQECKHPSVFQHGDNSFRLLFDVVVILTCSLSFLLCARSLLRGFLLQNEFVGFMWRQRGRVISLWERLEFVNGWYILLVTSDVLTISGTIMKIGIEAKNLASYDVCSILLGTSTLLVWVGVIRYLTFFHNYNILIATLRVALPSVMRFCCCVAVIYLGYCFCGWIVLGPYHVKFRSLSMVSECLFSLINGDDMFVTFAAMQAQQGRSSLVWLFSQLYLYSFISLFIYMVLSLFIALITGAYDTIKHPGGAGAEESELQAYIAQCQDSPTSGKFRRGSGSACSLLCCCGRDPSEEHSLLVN
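Tetracycline-induced TRPML1-DL cells are seeded and incubated overnight before loading with a no-wash Ca2+ dye and quencher. Agonist activity is taken from the 110 s fluorescence read following compound pin-transfer on an FDSS, before EC80 54-4 challenge.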
D2 potentiator – positive allosteric modulators of human D2 dopamine receptor; P14416; DiscoveRx D2 beta-arrestin cells, luminescence, 90 min; 100% = 57 uM dopamine signal; potentiation, % (concentration not given with the values); 360,000 compounds, 0.23% hits; AID 624464; active = potentiation of 50% or more; inconclusive = 30% to 50%; inactive = 30% or less;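 also: tested on top of an EC20 dose of dopamine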
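D2 cells co-treated with compound plus 50 nM dopamine (EC20) for 90 min at 37 deg C to detect potentiation. Beta-arrestin recruitment was read as enzyme-fragment luminescence after 1 h at ambient temperature. Full response was set by 57 uM dopamine.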
Numbers without * were called inactive; ? = inconclusive; nt = not tested or not shown; & = joins results of further samples; [ ] = remark or other dose.

smiles | CtBP-E1A inh | PINK1 expr mod | D2 agonist | Six1-Eya2 blk | TRPML1 agonist | D2 potentiator
COc1ccccc1N1CCN(Cc2ccco2)CC1 | -8 | -4.8%[38.3 µM] | 0.7 | 0 | -0.4 | -6
CCOC(=O)C1=C(O)/C(=C/c2ccc(OCC(=O)O)c(OC)c2)SC1=Nc1ccc(OCC)cc1 | 0 | 1.7% | -3.1 | -9 | 0.4 | -10
CC(C)CCNC(=O)C1(O)c2ccccc2NC(=O)N1c1ccc(Cl)cc1 (stereo unspecified) | 9 | 4.6% | -3.7 | 10 | 1.4 | 2
Oc1ccc2ccccc2c1CN1CCCCC1 | 3 | 1.7% | 1.2 | 6 | -0.4 | -3
O=C(CCc1ccccc1)N1CCN(c2ccc(Cl)cc2)CC1 | 15 | -2.9%[38.3 µM] | -0.3 | 0 | -0.7 | -10
CCOc1ccc2nc(NC(=O)C3(C)CC3(Br)Br)sc2c1 (stereo unspecified) | nt | 1.7% | -2.1 | -4 | 0.1 | -10
COc1ccc([N+](=O)[O-])cc1N(CC(O)CN1C(=O)NC(C)(C)C1=O)S(=O)(=O)c1ccccc1 (stereo unspecified) | 0 | 0.7% | 3.0 | 9 | 0.1 | 2
C#CCCCc1nc2ccccc2c(=O)n1N | 9 | 0.2% | -5.2 | -13 | -0.1 | 1
CCOc1ccc(CN2CCNC(=O)C2CC(=O)NCc2csc(C)n2)cc1 (stereo unspecified) | -22 | 0.2% | -1.7 | 6 | 0.3 | -11
CCn1c(SCC(=O)N/N=C/C=C/c2ccco2)nnc1-c1ccccc1 | -5 | -1.0% | -4.0 | ? | 1.8 | -2
COc1cc2c(cc1OC)C(c1ccccc1)N(Cc1ccc(S(=O)(=O)NC(=O)c3ccco3)cc1)CC2 (stereo unspecified) | -23 | -0.8% | nt | 3 | -0.4 | nt
COc1cccc(-c2cnc(OC(C)(C)C)nc2OC(C)(C)C)c1 | 1 | 3.4% | -0.1 | 3 | -0.3 | -5

Continued:
smiles | CtBP-E1A inh | PINK1 expr mod | D2 agonist | Six1-Eya2 blk | TRPML1 agonist | D2 potentiator
COC(=O)[C@]1(C)N[C@H](c2ccc(-c3cccc(Cl)c3)c(OC)c2)[C@@H]2C(=O)N(C)C(=O)[C@@H]21 | 2 | 0.0% | -0.4 | 0 | 1.3 | -1
COc1ccc2cc(CN(Cc3cccnc3)S(=O)(=O)c3ccccc3)c(=O)[nH]c2c1 | 6 | 3.4% | -0.1 | -2 | 0.4 | -1
C[C@@H]1CN([C@H](C)CO)C(=O)CCCn2nncc2CO[C@H]1CN(C)C(=O)C1CC1 | 3 | -2.1% | -2.3 | 4 | 0.0 | -1
CCCCn1c2c(cc(C(=O)OC)c1=O)C(=O)CCC2 | 5 | 0.3% | 2.2 | 1 | 0.4 | nt
COc1ccc(NC(=O)/C=C/c2cccc(C(F)(F)F)c2)cn1 | -7 | 1.9% | -2.4 | -10 | 2.8 | -8
CCOCCn1c(C(C)O)nc2ccccc21 (stereo unspecified) | -2 | 4.1% | -1.1 | 2 | 0.3 | 0
CCOC(=O)N1CCN(C(=O)CN(C2CCCCC2)S(=O)(=O)c2ccc(F)cc2)CC1 | 4 | 1.7%[38.3 µM] | -0.1 | 1 | -0.6 | 1
COc1cccc(/C=N/NC(=O)C(=O)N/N=C/c2cccc(OC)c2OC)c1OC | -3 | 4.2% | -15 | 1 | -0.9 | -2
CCNC(=O)C1(C)CCCN(C(=O)c2cccnc2Oc2ccccc2)C1 (stereo unspecified) | 10 | 1.1% | -1.5 | 8 | -0.2 | -5
CCC(=O)n1nc(-c2ccc(Cl)cc2)nc1NCc1ccccc1 | 11 | 9.1% | -3.2 | 4 | -0.8 | -10
COC(=O)CN1C(=O)[C@H]2[C@@H](/C=C/c3ccccc3)N3C(=O)CN(CCO)C(=O)[C@@]3(Cc3ccccc3)[C@H]2C1=O | 3 | -1.3% | -0.2 | 2 | -0.6 | -5
O=C(NCCC(=O)N(Cc1ccco1)Cc1cccs1)c1ccccc1Cl | nt | 0.0% | 1.4 | -4 | -1.8 | -8

Further results follow.
smiles | CtBP-E1A inh | PINK1 expr mod | D2 agonist | Six1-Eya2 blk | TRPML1 agonist | D2 potentiator
O=C(COC(=O)c1cc(=O)[nH]c2ccccc12)NCc1ccc(Cl)cc1 | nt | 1.6% | 2.1 | -1 | -0.9 | 8
Fc1cccc(NC(=S)NCc2ccccc2Cl)c1 | 0 | ? | -10 | 6 | 0.6 | 8
Cc1ccc(-n2nc3c(c2NC(=O)c2ccc(F)c(F)c2)CS(=O)(=O)C3)cc1 | -3 | -0.6% | -7.4 | -16 | -0.1 | 2
NC(=O)c1ccccc1OCC(=O)Nc1ccc(Cl)c(Cl)c1 | 6 | 2.4% | 0.0 | 0 | -0.1 | -12
COc1ccc(CN2CCCC(C(=O)c3cccc(C(F)(F)F)c3)C2)cc1O (stereo unspecified) | -1 | 8.4% | -3.1 | -2 | 0.7 | -7
CC(=NNc1nc2ccccc2o1)c1ncccn1 | 0 | 0.0% | 2.4 | -90* | 0.9 | -1
COc1ccc(-n2c(SCc3cn4c(C)cccc4n3)nc3ccccc3c2=O)cc1OC | 2 | 0.6% | -4.2 | -20 | 1.3 | -22
COc1ccccc1Oc1c(C)oc2c(CN3CCOCC3)c(O)ccc2c1=O | 13 | 1.1% | -0.7 | 0 | -0.4 | -6
COc1cc(C(C[N+](=O)[O-])c2c(N)n(C)c(=O)n(C)c2=O)ccc1O (stereo unspecified) | 4 | -1.3% | -3.3 | 4 | 1.1 | -32
CCOC(=O)c1ccc(-n2c(O)c(/C=N/NC(=O)C3COc4ccccc4O3)c3ccccc3c2=O)cc1 (stereo unspecified) | -8 | -1.4% | -5.8 | ? | 0.4 | -17
CN(C)S(=O)(=O)c1cccc(NC(=O)c2cc(=O)[nH]c3ccccc23)c1 | nt | 1.2% | -4.7 | -5 | 0.5 | -2
COCCNc1nc(-c2cc(C)c(C)cc2C)cs1 | -8 | 7.8% | -0.5 | -1 | -0.4 | -9

6 entries drawn at random from those above, as already listed:
smiles | CtBP-E1A inh | PINK1 expr mod | D2 agonist | Six1-Eya2 blk | TRPML1 agonist | D2 potentiator
CC(=NNc1nc2ccccc2o1)c1ncccn1 | 0 | 0.0% | 2.4 | -90* | 0.9 | -1
O=C(COC(=O)c1cc(=O)[nH]c2ccccc12)NCc1ccc(Cl)cc1 | nt | 1.6% | 2.1 | -1 | -0.9 | 8
Cc1ccc(-n2nc3c(c2NC(=O)c2ccc(F)c(F)c2)CS(=O)(=O)C3)cc1 | -3 | -0.6% | -7.4 | -16 | -0.1 | 2
COc1ccc(CN2CCCC(C(=O)c3cccc(C(F)(F)F)c3)C2)cc1O (stereo unspecified) | -1 | 8.4% | -3.1 | -2 | 0.7 | -7
Fc1cccc(NC(=S)NCc2ccccc2Cl)c1 | 0 | ? | -10 | 6 | 0.6 | 8
COc1ccc(-n2c(SCc3cn4c(C)cccc4n3)nc3ccccc3c2=O)cc1OC | 2 | 0.6% | -4.2 | -20 | 1.3 | -22

(list continues)
smiles | CtBP-E1A inh | PINK1 expr mod | D2 agonist | Six1-Eya2 blk | TRPML1 agonist | D2 potentiator
CCOc1ccc(C2=Nc3ccc(Br)cc3C(c3ccc(N4CCOCC4)cc3)=NN2)cc1 | -7 | 2.6% | 3.3 | -27 | 0.0 | -21
CC(Oc1ccc2c(-c3ccccc3)cc(=O)oc2c1)C(=O)NC(Cc1c[nH]c2ccccc12)C(=O)O (stereo unspecified) | ? | -2.9% | -0.7 | ? | 0.2 | 0
CN(C)Cc1cc(C(C)(C)C)c(O)c(C(C)(C)C)c1 | -3 | -0.2% | -0.6 | 1 | -0.6 | -6
O=C(O)Cc1ccc(NS(=O)(=O)c2ccc3ccccc3c2)cc1 | -3 | 1.9% | -0.9 | 9 | 0.1 | -9
COc1ccc(CCC(=O)O)cc1OC | 1 | 2.7% | 2.3 | 3 | 0.6 | 2
COc1cc(OC)c(NC(=O)CCNS(=O)(=O)c2ccc3c(c2)oc(=O)n3C)cc1Cl | nt | 0.5%&0.2% | 5.5 | -18 | 0.0&-0.6 | -7
C=CC[n+]1c(-c2ccc(OC)cc2)csc1NNC(=O)Nc1ccccc1 | -4 | 1.2%[38.3 µM] | 1.7 | -14 | -0.7 | 3
CCS(=O)(=O)NCC(c1cccnc1)N1CCN(c2ccccc2OC)CC1 (stereo unspecified) | 3 | 5.4% | -4.1 | 0 | 0.2 | -8
COc1cc2[nH]c(=S)nc(NCc3cccnc3)c2cc1OC | -82* | -0.4% | 9.7 | -69* | 0.5 | -1
CCCCNC(=O)c1ccc2c(OCC)n(CCCC)nc2c1 | 6 | -0.9% | 1.3 | 4 | 0.2 | -4
Brc1ccc2ncnc(NCc3cccnc3)c2c1 | 6 | -1.0% | -4.2 | 3 | -0.8 | -8
Cc1ccc(-n2c(O)c(C=NCc3ccccn3)c3ccccc3c2=O)cc1 | nt | 2.5% | -3.9 | -4 | 0.4 | -4

Further records.
smiles | CtBP-E1A inh | PINK1 expr mod | D2 agonist | Six1-Eya2 blk | TRPML1 agonist | D2 potentiator
COCCCNC(=O)C[C@@H]1C[C@@]2(C(=O)OC)CCCCC=C2N(Cc2ccccc2)C1=O | -20 | 0.1% | nt | 6 | -0.2 | nt
COCc1nnc(NC(=O)c2sc3ccccc3c2Cl)s1 | -3 | 3.6%[38.3 µM] | -3.4 | -3 | -0.2 | -6
Cc1ccc(N(CC(=O)NC2CCCCC2)C(=O)CCC(=O)Nc2nccs2)cc1 | 1 | 11% | -4.0 | 4 | -0.7 | -6
COC(=O)c1cc(NC(=O)c2cc3ccccc3o2)cc(C(=O)OC)c1 | nt | 10% | 2.4 | -1 | nt | 10
CCN1C[C@@H]2[C@@H]3C(=O)N(Cc4ccccc4)C(=O)[C@@H]3[C@](Cc3ccccc3)(C1=O)N2C(=O)c1ccc(C(F)(F)F)cc1 | 8 | -0.1% | -3.5 | -4 | -0.2 | -5
Cc1ccc(C(=O)CSc2ccc(-c3ccccc3)nn2)cc1 | -2 | 0.8% | -1.1 | 15 | 3.2 | 10
N/C(Cc1ccc([N+](=O)[O-])cc1)=N\OC(=O)c1ccccc1Br | -1 | -3.2% | 41* | -13 | 1.2 | 122*
COc1ccc(C2CC(C(F)(F)F)n3ncc(C(=O)Nc4c(C)n(C)n(-c5ccccc5)c4=O)c3N2)cc1 (stereo unspecified) | 4 | nt | -3.5 | 2 | 0.1 | 3
Cc1ccc(Cl)cc1N1CCN(S(=O)(=O)c2ccc3[nH]c(=O)c(=O)[nH]c3c2)CC1 | -3 | 9.4% | -0.2 | -6 | 2.8 | 2
C[C@@H](NC(=O)c1nc[nH]c1C(=O)N(C)Cc1ccccc1)c1ccccc1 | 4 | 0.0% | 4.3 | 5 | -0.1 | -6
O=C(CCc1nc2ccccc2c(=O)[nH]1)Nc1ccc(Cl)c(Cl)c1 | -23 | 25% | ? | 2 | 0.8 | 15
COC(=O)N[C@@H]1C[C@H]2[C@@H]3CC[C@H]4C[C@@H](OC)CC[C@]4(C)[C@H]3CC[C@@]12C | 5 | ? | -0.2 | 0 | -0.2 | -31

Compound activity deposited in PubChem BioAssay by National Center for Advancing Translational Sciences (NCATS).
